Hedgehog inh = Sonic Hedgehog pathway inhibition | 2.1% of 22,000 active | AID 2313 | Shh-LIGHT2 Gli-luciferase reporter, 30 h | inhibition, % (no concentration beside the values);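 active = replicate mean of 65% or more; inconclusive = mean lower but half the replicates past it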;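 also: pathway switched on by Shh-conditioned medium diluted 1 in 25 in low serum; 100 nL library stock added to about 40 µL; 0% = median of neutral wells and 100% = positive control level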
PD-1 reverse act = activators reversing PD-1 mediated T-cell inhibition; primary human CD4 T cells, PD-L1 beads, CellTiter-Glo 96 h; activation, % (concentration not given with the values); 29,000 tested, under 10 active;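 active = replicate mean of 50% or more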;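 also: 0% = median vehicle wells and 100% = positive control; 100 nL library stock added to about 50 µL; numbers are from one replicate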
YB-1 expr inh = YB-1 expression inhibition | U2OS, qRT-PCR YB-1 vs CDIP delta delta Cp, 16 h; stronger effect = higher value; zero = DMSO, each unit about twofold | delta delta Cp (YB-1 minus CDIP) (concentration not given with the values) | 0.37% of 30,000 active | AID 434959;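 active = delta delta Cp rounded down to an integer at or above 3, about 3 SD of DMSO wells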;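 also: higher means less YB-1 transcript or more CDIP transcript relative to DMSO; stock transfer was 100 nL into about 100 µL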
MITF inh = MITF inhibition | inhibition, % (no concentration beside the values) | TRPM1 promoter luciferase, luminescence, 24 h | AID 2240 | 0.28% of 37,000 active;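 active = most replicates at 85% or more, or half of them and the mean; inconclusive = half reach 85% but not the mean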;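 also: human melanocyte line stably carrying TRPM1 promoter luciferase reporter; 0% = vehicle wells and 100% = a positive control; the first replicate is given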
Active calls of the source: *; ? = inconclusive; / = not tested or not shown.

SMILES | Hedgehog inh | PD-1 reverse act | YB-1 expr inh | MITF inh
Cc1ccc(S(=O)(=O)Nc2ccc3c(c2)CC(=O)N([C@@H](C)CO)C[C@H](C)[C@@H](CN(C)C(=O)NC2CCCCC2)O3)cc1 | 8 | 0.8 | -0.48 | -8
Cc1noc(C)c1S(=O)(=O)N(C)C[C@@H]1Oc2c(NS(=O)(=O)c3cn(C)cn3)cccc2C(=O)N([C@@H](C)CO)C[C@H]1C | 2 | 0.0 | 0.1 | -11
Cc1ccc(S(=O)(=O)N(C)C[C@H]2OCCCC[C@@H](C)Oc3ccc(NC(=O)c4ccncc4)cc3C(=O)N([C@H](C)CO)C[C@@H]2C)cc1 | / | 1.1 | -0.3 | -11
CN(CC(=O)Nc1ccccc1C(N)=O)S(=O)(=O)c1ccc(Br)cc1 | / | 0.0 | / | 0
COc1ccc(CN(C)C[C@H]2Oc3c(NS(=O)(=O)c4ccccc4)cccc3C(=O)N([C@H](C)CO)C[C@H]2C)cc1 | -26 | 0.8 | 1.6 | -13
CCc1cccc(C)c1NC(=O)CSc1nnc(C)n1-c1ccc(F)cc1 | / | 1.0 | / | -7
CCc1ccccc1NC(=O)Cn1nc([N+](=O)[O-])cc1C | / | 1.1 | / | -12
C[C@@H]1CN([C@H](C)CO)C(=O)c2cc(NC(=O)Nc3ccc4c(c3)OCO4)ccc2O[C@@H]1CN(C)S(=O)(=O)c1cccs1 | / | 1.3 | 0.22 | -12
C[C@H]1CN([C@@H](C)CO)C(=O)c2cccc(NC(=O)C3CCCCC3)c2O[C@H]1CN(C)C(=O)Nc1ccc2c(c1)OCO2 | -13 | -0.3 | 0.18 | -2
C[C@H]1CN([C@@H](C)CO)C(=O)Cc2cc(NC(=O)c3ccncc3)ccc2O[C@@H]1CN(C)C(=O)Nc1ccc(F)cc1 | / | 0.8 | -0.32 | -3
C[C@]12CCC(=O)C=C1CC[C@@H]1C2[C@@H](O)C[C@@]2(C)C1CC[C@@H]2C(=O)CO (stereo partly drawn) | ? | -2.3 | -0.036 | -19
CC1(C)CC(=O)c2c(O)cc(OCC(=O)c3ccc(-c4ccccc4)cc3)cc2O1 | / | 2.7 | / | 37
c1ccc(Cc2nn3c(C4COc5ccccc5O4)nnc3s2)cc1 (stereo not drawn) | / | 2.0 | / | -47
COc1ccc(CN(C)C[C@@H]2Oc3c(NC(=O)C4CCOCC4)cccc3C(=O)N([C@H](C)CO)C[C@H]2C)cc1 | 16 | -1.5 | -0.14 | 7
Cc1noc(C)c1S(=O)(=O)Nc1ccc2c(c1)C(=O)N([C@H](C)CO)C[C@H](C)[C@H](CN(C)Cc1ccc(C(=O)Nc3ccccc3N)cc1)OCCCC[C@@H](C)O2 | / | -0.4 | -0.098 | -4
NS(=O)(=O)c1ccc(NC(=S)NCCN2CCOCC2)cc1 | / | 0.7 | / | -19
C[C@H](CO)N1C[C@H](C)[C@@H](CN(C)S(=O)(=O)c2cccs2)Oc2ccc(NC(=O)Nc3ccccc3)cc2C1=O | 14 | 0.1 | -0.024 | -2
C=C1C(=O)O[C@H]2[C@H]1[C@@H](OC(=O)C(C)CO)C[C@@]1(C)[C@H](O)CCC(=O)[C@H]21 (stereo partly drawn) | ? | / | -0.053 | /
Cc1cc(C)nc(SCC(=O)N2CCN(c3nnc(-c4ccccc4)c4ccccc34)CC2)n1 | / | 0.2 | / | 19
CC1(C)CC[C@]2(C(=O)O[C@@H]3O[C@H](CO)[C@@H](O)[C@H](O)[C@H]3O)CC[C@]3(C)C(=CCC4[C@@]5(C)CC[C@H](O[C@@H]6O[C@H](CO)[C@@H](O)[C@H](O[C@@H]7O[C@H](CO)[C@@H](O)[C@H](O)[C@H]7O)[C@H]6O[C@@H]6O[C@H](CO)[C@H](O)[C@H](O)[C@H]6O)C(C)(C)C5CC[C@]43C)[C@@H]2C1 (stereo partly drawn) | -4 | / | 0.16 | /
COc1ccc(S(=O)(=O)Nc2cccc3c2O[C@H](CN(C)CC2CCCCC2)[C@@H](C)CN([C@@H](C)CO)C3=O)cc1 | 8 | 0.1 | -0.29 | -10
C[C@H](CO)N1C[C@H](C)[C@H](CN(C)S(=O)(=O)c2cccs2)Oc2c(NC(=O)C3CCOCC3)cccc2C1=O | -33 | 0.1 | 0.32 | -13
Cc1noc(C)c1S(=O)(=O)N(C)C[C@@H]1Oc2c(NC(=O)c3nc4ccccc4s3)cccc2C(=O)N([C@@H](C)CO)C[C@@H]1C | -34 | -5.3 | 0.0013 | -28
C[C@H]1CN([C@@H](C)CO)C(=O)Cc2cc(NS(=O)(=O)c3cccs3)ccc2O[C@@H]1CN(C)C(=O)NC1CCCCC1 | 34 | 3.6 | 0.015 | -3
COc1ccc(S(=O)(=O)Nc2ccc3c(c2)CC(=O)N([C@@H](C)CO)C[C@H](C)[C@H](CN(C)C(=O)NC2CCCCC2)O3)cc1 | 8 | 1.6 | 0.051 | -9
C[C@@H]1CN([C@H](C)CO)C(=O)c2cccc(NS(=O)(=O)c3ccc(Cl)cc3)c2O[C@H]1CN(C)C(=O)NC1CCCCC1 | -17 | 1.7 | 0.2 | 1
COc1ccc(S(=O)(=O)N(C)C[C@H]2Oc3ccc(NC(=O)Nc4ccc5c(c4)OCO5)cc3C(=O)N([C@H](C)CO)C[C@H]2C)cc1 | / | -0.7 | 2.6 | -5
C[C@H]1CN([C@@H](C)CO)C(=O)c2cccc(NS(=O)(=O)c3cn(C)cn3)c2O[C@@H]1CN(C)C(=O)Nc1ccccc1 | -3 | 3.5 | -0.37 | -8
C[C@@H]1CCCCO[C@@H](CN(C)S(=O)(=O)c2ccc(Cl)cc2)[C@@H](C)CN([C@H](C)CO)C(=O)c2cc(NC(=O)c3ccncc3)ccc2O1 | 13 | / | -0.081 | 12
COc1ccc(NC(=O)C(C)N(c2ccc(C)cc2)S(C)(=O)=O)c(OC)c1 (stereo not drawn) | / | 1.0 | / | -13
Cc1ccc(S(=O)(=O)Nc2nc(C)cc(N3N=N3)n2)cc1 | / | 1.6 | / | -1
C[C@@H]1CN([C@@H](C)CO)C(=O)Cc2cc(NC(=O)NC3CCCCC3)ccc2O[C@@H]1CN(C)Cc1ccc(-c2ccccc2)cc1 | 4 | -2.1 | -0.2 | 10
C[C@H](CO)N1C[C@H](C)[C@@H](CN(C)C(=O)Nc2ccc3c(c2)OCO3)Oc2c(NC(=O)c3ccc(-c4nccs4)cc3)cccc2C1=O | -26 | 0.2 | -0.29 | -19
CS(=O)(=O)N(CC(=O)Nc1ccc(Br)cc1F)c1cccc([N+](=O)[O-])c1 | / | -1.3 | / | 8
COC(=O)c1sc(N2C(=O)C(=O)C(C(=O)c3ccc(OC)c(C)c3)C2c2ccco2)nc1C (stereo not drawn) | / | -1.0 | / | -1
Cc1ccc(NC(=O)C(C)Sc2n[nH]c(C)n2)cc1 (stereo not drawn) | / | 0.4 | / | 1
Cc1noc(C)c1S(=O)(=O)Nc1ccc2c(c1)CC(=O)N([C@H](C)CO)C[C@H](C)[C@H](CN(C)Cc1ccc(C(=O)O)cc1)O2 | 4 | 1.8 | 0.21 | -5
C[C@@H]1CN([C@@H](C)CO)C(=O)c2cccc(NC(=O)Nc3ccc(F)cc3)c2O[C@@H]1CN(C)S(=O)(=O)c1ccc(F)cc1 | -7 | / | -0.24 | 49
Cc1[nH]n(-c2nc3ccccc3[nH]2)c(=O)c1C1OC(=O)c2ccccc21 (stereo not drawn) | / | -9.8 | / | 0
CCn1c(SCC(=O)Nc2ccc(Cl)c(Cl)c2)nnc1-c1ccccc1C | / | -1.8 | / | 63

3 entries out of the list, ordered by molecular weight, largest number first:
SMILES | Hedgehog inh | PD-1 reverse act | YB-1 expr inh | MITF inh
CS(=O)(=O)N(CC(=O)Nc1ccc(Br)cc1F)c1cccc([N+](=O)[O-])c1 | / | -1.3 | / | 8
Cc1ccc(S(=O)(=O)Nc2nc(C)cc(N3N=N3)n2)cc1 | / | 1.6 | / | -1
CCc1ccccc1NC(=O)Cn1nc([N+](=O)[O-])cc1C | / | 1.1 | / | -12

Continued:
SMILES | Hedgehog inh | PD-1 reverse act | YB-1 expr inh | MITF inh
C[C@H]1CN([C@@H](C)CO)C(=O)c2cc(NC(=O)CCN3CCOCC3)ccc2O[C@@H]1CN(C)CC1CCCCC1 | / | 1.8 | -0.48 | -10
NC(=O)C1CC(=O)N(c2ccc(OCC(=O)Nc3cc(Cl)cc(Cl)c3)cc2)C1 (stereo not drawn) | / | -0.2 | / | -14
C[C@H](CO)N1C[C@H](C)[C@H](CN(C)C(=O)NC2CCCCC2)Oc2c(NC(=O)C3CCOCC3)cccc2C1=O | 17 | -0.5 | -0.16 | -2
O=C(Oc1ccc(Br)cc1)c1cccnc1 | / | 0.1 | 0.76 | -3
CC(=O)c1cccc(NC(=O)CN(C2CCCCC2)S(C)(=O)=O)c1 | / | -1.1 | / | -1
C[C@@H]1CN([C@@H](C)CO)C(=O)c2cc(NS(=O)(=O)c3cccs3)ccc2O[C@@H]1CN(C)Cc1ccc(C(F)(F)F)cc1 | / | -0.7 | 0.083 | 0
COc1ccc(S(=O)(=O)Nc2ccc3c(c2)CC(=O)N([C@H](C)CO)C[C@H](C)[C@H](CN(C)C(=O)NC2CCCCC2)O3)cc1 | 6 | 1.3 | -0.28 | -1
COc1ccc(S(=O)(=O)N(C)CC(=O)Nc2cccc(F)c2)cc1Cl | / | -0.8 | / | 13
O=C(CSc1nc2sc3c(c2c(=O)[nH]1)CCCC3)Nc1ccccc1F | / | -0.2 | / | 48
CC(C)NC(=O)Nc1ccc2c(c1)C(=O)N([C@H](C)CO)C[C@H](C)[C@@H](CN(C)S(C)(=O)=O)OCCCC[C@@H](C)O2 | / | 0.1 | -1 | -9
CS(=O)(=O)N(CC(=O)Nc1ccc(C(F)(F)F)cc1)c1cccc(Br)c1 | / | -3.9 | / | 11
CCn1c(SCC(=O)c2ccc(Br)cc2)nnc1-c1cccc(N)c1 | / | 1.7 | / | 3
Cn1c(SCC(=O)Nc2ccc(Oc3ccccc3)cc2)nnc1-c1ccccn1 | / | -0.5 | / | 2
COc1ccc(S(=O)(=O)Nc2cccc3c2O[C@H](CN(C)S(C)(=O)=O)[C@H](C)CN([C@@H](C)CO)C3=O)cc1 | 16 | 3.0 | -0.079 | -5
COc1ccc(S(=O)(=O)N(C)C[C@H]2Oc3ccc(NC(=O)Cc4cn(C)c5ccccc45)cc3C(=O)N([C@H](C)CO)C[C@H]2C)cc1 | 16 | -1.6 | 0.063 | 6
Cc1noc(C)c1NC(=O)N(C)C[C@H]1Oc2ccc(NS(C)(=O)=O)cc2C(=O)N([C@H](C)CO)C[C@@H]1C | -1 | 0.4 | -0.037 | -5
O=C1CCC(=O)N1CNc1ccccn1 | 1 | -0.8 | 0.13 | -10
COc1ccc(NC(=O)Nc2cccc3c2O[C@@H](CN(C)S(=O)(=O)c2ccc(F)cc2)[C@@H](C)CN([C@@H](C)CO)C3=O)cc1 | 15 | / | -0.66 | -20
Cc1ccc(C)c(NC(=O)CNS(=O)(=O)c2ccccc2)c1 | / | -0.7 | / | 1
CC(C)(O)/C=C/C(=O)[C@](C)(O)[C@H]1[C@H](O)C[C@@]2(C)[C@@H]3CC=C4[C@@H](C=C(O[C@@H]5O[C@H](CO)[C@@H](O)[C@H](O)[C@H]5O)C(=O)C4(C)C)[C@]3(C)C(=O)C[C@]12C | -9 | 1.9 | -0.012 | -9

2 entries from above in another layout.
SMILES: C[C@H]1CN([C@@H](C)CO)C(=O)c2cc(NC(=O)CCN3CCOCC3)ccc2O[C@@H]1CN(C)CC1CCCCC1
  Hedgehog inh = /
  PD-1 reverse act = 1.8
  YB-1 expr inh = -0.48
  MITF inh = -10
SMILES: NC(=O)C1CC(=O)N(c2ccc(OCC(=O)Nc3cc(Cl)cc(Cl)c3)cc2)C1 (stereo not drawn)
  Hedgehog inh = /
  PD-1 reverse act = -0.2
  YB-1 expr inh = /
  MITF inh = -14

Additional structures follow:
SMILES | Hedgehog inh | PD-1 reverse act | YB-1 expr inh | MITF inh
C[C@H](CO)N1C[C@H](C)[C@H](CN(C)S(=O)(=O)c2ccc(Cl)cc2)Oc2ccc(NC(=O)CCC(F)(F)F)cc2CC1=O | -12 | / | -0.03 | 19
C[C@H](CO)N1C[C@H](C)[C@H](CN(C)C(=O)Nc2ccccc2)Oc2c(NS(=O)(=O)c3ccccc3)cccc2C1=O | -32 | -2.2 | 0.43 | 13
Cc1noc(C)c1NC(=O)Nc1ccc2c(c1)C(=O)N([C@@H](C)CO)C[C@H](C)[C@@H](CN(C)C(=O)Nc1ccc(C(F)(F)F)cc1)O2 | -15 | / | -0.02 | -1
O=C(O)CCC(=O)N1N=C(c2c(-c3ccccc3)c3cc(Cl)ccc3[nH]c2=O)CC1c1ccccc1 (stereo not drawn) | / | 0.6 | / | -4
COc1ccccc1NC(=O)CSc1nnnn1-c1c(C)cccc1C | / | 2.0 | / | 4
C[C@H]1CN([C@@H](C)CO)C(=O)c2cccc(NC(=O)c3ccc(-c4nccs4)cc3)c2O[C@H]1CN(C)Cc1ccc(Oc2ccccc2)cc1 | 19 | -2.2 | 0.19 | -18
C[C@@H]1CN([C@H](C)CO)C(=O)Cc2cc(NC(=O)c3ccncc3)ccc2O[C@H]1CN(C)C(=O)Nc1ccc(C(F)(F)F)cc1 | -39 | / | 0.22 | 0

Bioassay records deposited in PubChem by Broad Institute.

A portion of the library, so the mix of outcomes need not match the whole.
